NS1 function inh = qHTS Assay for Inhibitors of Influenza NS1 Protein Function | actives 0.4% (n = 270,000) | S. cerevisiae slowed by influenza A NS1, growth recovery by OD600 | Potency, µM (highest dose often 46.1 µM), for inactives: top-dose activity, positive = more growth | AID 2326, 2010; also: actives are rising curves; nearly all actives have a fitted effect of over 50% in size
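A cell-based growth assay was used: compounds that relieve NS1-induced slow growth of budding yeast raise OD600. Assay medium was yeast nitrogen base with ammonium sulphate and -URA supplement, pH 6.0, with 2% galactose.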
MARV entry inh = qHTS for inhibitors of binding or entry into cells for Marburg Virus; actives 1.8% (n = 300,000); Potency, µM (titrated, usually from 37.8 µM), for inactives: top-dose activity change, negative = inhibition, actives largely listed as inhibitors; Marburg virus pseudotyped entry inhibition, cell reporter; control for the full effect not named in the record; about a third of the inactives were read at about 46 µM; active = well fitted inhibition curve with a large enough effect; inconclusive = small, poorly fitted or top-dose-only effect, or effect the other way; inactive = flat fitted curve, though single readings scatter; tested in HEK293 cells; about a fifth of its hits are not listed in these tables; also: % is scaled to controls: 0 for no effect and ±100 for the full control effect; luciferase read-out
LASV entry inh = qHTS for Inhibitors of binding or entry into cells for Lassa Virus | Lassa virus pseudotype entry inhibition, cell reporter; control for the full effect not named in the record | Potency, µM (top dose mostly 37.9 µM), without a hit: at the highest dose activity change, negative = inhibition, usual class: inhibitors | actives 1.2% (n = 300,000) | AID 540256, 2011; active means well fitted inhibition curve with a large enough effect; inconclusive means small, poorly fitted or top-dose-only effect, or effect the other way; inactive means flat fitted curve, though single readings scatter; tested in HEK293 cells; also: % is scaled to controls: 0 for no effect and ±100 for the full control effect; nearly all actives have a fitted effect of over 50% in size; luciferase read-out
Cruzain Triton = qHTS Assay for Promiscuous and Specific Inhibitors of Cruzain (with detergent); Potency, µM, inactives show max response, negative = inhibition, usual class: inhibitors; AID 1478, 2009; purified cruzain, Z-FR-AMC fluorescence, 0.01% Triton; actives 0.43% (n = 200,000); Cruzipain (Trypanosoma cruzi), P25779; active = well fitted curve in the direction sought with a large enough effect; inconclusive = small, poorly fitted or top-dose-only effect, or another doubt; inactive = no such curve, though single readings can be large; an effect the other way counts as inactive or inconclusive;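 also: plate controls were neutral wells for no effect and buffer without enzyme for full effect; nearly all actives have a fitted effect of over 40% in size; top concentration of the series not given in the record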
Target sequence (P25779 123-467 limits assumed): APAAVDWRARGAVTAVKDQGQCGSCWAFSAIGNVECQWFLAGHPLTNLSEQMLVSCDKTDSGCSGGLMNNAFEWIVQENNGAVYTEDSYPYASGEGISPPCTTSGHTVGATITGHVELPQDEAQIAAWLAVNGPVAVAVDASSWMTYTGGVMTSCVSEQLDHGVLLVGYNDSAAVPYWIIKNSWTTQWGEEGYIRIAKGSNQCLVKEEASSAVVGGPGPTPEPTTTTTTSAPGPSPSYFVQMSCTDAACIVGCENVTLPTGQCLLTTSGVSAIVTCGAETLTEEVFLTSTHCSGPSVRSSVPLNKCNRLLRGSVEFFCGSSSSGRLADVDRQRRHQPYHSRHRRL
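Sodium acetate buffer (100 mM, pH 5.5) containing 5 mM DTT and 0.01% Triton X-100 hosted 1.5 nM cruzain and test compound for 15 min at room temperature. Cleavage of 2 uM Z-FR-AMC was then tracked by fluorescence.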
StopGo reporter = High Throughput Screening for Foot and Mouth Disease Virus Antivirals; actives 1.2% (n = 410,000); human cells with a luciferase reporter of 2A StopGo recoding; control for the full effect not named in the record; Potency, µM (series often up to 57.9 µM), for inactives: at the top dose signal change, negative = less light; AID 1159524, 2015; active = well fitted falling curve with a large enough effect; inconclusive = small, poorly fitted or top-dose-only effect; inactive = no such curve, though single readings can be large or run the other way; tested in HEK293T cells; also: % is scaled to controls: 0 for no effect and ±100 for the full control effect; nearly all actives have a fitted effect of over 45% in size; luciferase light after 4 h
SARS PLpro yeast = qHTS of Yeast-based Assay for SARS-CoV PLP. Potency, µM (series often up to 32.9 µM), without a hit: at the highest dose activity, positive = growth rescue. S. cerevisiae expressing SARS-CoV PLpro, growth rescue; control for the full effect not named in the record. AID 485353, 2010. actives 0.19% (n = 330,000); also: 0% is about no effect; nearly all actives have a fitted effect of over 55% in size; growth read by luminescence after 48 h
RE007 growth inh = qHTS Assay for Inhibitors of the HIV-1 protein Vpr; actives 0.21% (n = 360,000); S. pombe RE007 Vpr strain, BacTiter-Glo ATP luminescence, 24 h; control for the full effect not named in the record; Potency, µM (titrated, usually from 92.2 µM), for inactives: at the highest dose activity change, negative = less growth; AID 651644, 2012; active = well fitted falling curve with a large enough effect; inconclusive = small, poorly fitted or top-dose-only effect; inactive = no such curve, though single readings can be large or run the other way;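 also: % is scaled to controls: 0 for no effect and ±100 for the full control effect; nearly all actives have a fitted effect of over 50% in size; the assay follows cell death caused by Vpr and the record does not say whether a fall means rescue or toxicity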
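Fission yeast strain RE007, carrying one chromosomally integrated HIV-1 vpr copy, was seeded at OD 0.01 in PMG+AL medium with 23 nL pinned compound. After 24 h at 30 °C and 99% humidity, viability was read by BacTiter-Glo luminescence.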
Cruzain noTriton = qHTS Assay for Promiscuous and Specific Inhibitors of Cruzain (without detergent) | Cruzipain (Trypanosoma cruzi), P25779 | purified cruzain, Z-FR-AMC fluorescence, no detergent | Potency, µM, without a hit: max response, negative = inhibition, most hits filed as inhibitors | actives 2.3% (n = 200,000) | AID 1476, 2009; active = well fitted curve in the direction sought with a large enough effect; inconclusive = small, poorly fitted or top-dose-only effect, or another doubt; inactive = no such curve, though single readings can be large; an effect the other way counts as inactive or inconclusive;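 also: plate controls were enzyme without inhibitor for no effect and buffer without enzyme for full effect; nearly all actives have a fitted effect of over 40% in size; top concentration of the series not given in the record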
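Detergent-free condition (0.00005% Triton X-100) in acetate buffer pH 5.5 with DTT. 1.5 nM enzyme and compound were pre-mixed 15 min, then 2 uM Z-FR-AMC substrate added; reaction progress from fluorescence change between first and third reads (60 s).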
Numbers without * were called inactive; ? = inconclusive; / = no result given; & = joins results of further samples; [ ] = another dose, or the depositor's remark. Unless noted, calls follow the shape of the dose curve; as a rule, active means well fitted rising curve with a large enough effect; inconclusive means small, poorly fitted or top-dose-only effect; inactive means no such curve, though single readings can be large or run the other way. Potency is read from the fitted curve at half-maximal effect.

SMILES	NS1 function inh	MARV entry inh	LASV entry inh	Cruzain Triton	StopGo reporter	SARS PLpro yeast	RE007 growth inh	Cruzain noTriton
COC(=O)c1ccc(C)c(NC(=O)CCn2[nH]c(=O)ccc2=O)c1	/	2%[46.1 µM]	10%[46.1 µM]	/	2%	3%	-15%	/
COc1ccc(CN2CCN(Cc3cccc(OC)c3)C(CCO)C2)cc1 (stereo not given)	1%	-17%[46.1 µM]	-7%	/	13%	0%	5%	/
Cc1ccc2[nH]c(=O)c(CN(CCCN3CCOCC3)Cc3nnnn3C3CCCC3)cc2c1	-2%	?	-7%	-2.5%	-20%	-2%	4%	-3%
CC(=O)N1CCN(S(=O)(=O)c2cccc(C(=O)OCC(=O)N3CC(=O)Nc4ccccc43)c2)CC1	/	-5%[14.2 µM]	-16%	/	-4%	1%	18%	/
COCCCNC(=S)N1CCCC(c2nc3cc(C)c(C)cc3[nH]2)C1 (stereo not given)	2%	5%[46.1 µM]	0%[46.1 µM]	/	3%	0%	-19%	/
CCn1c(=O)n(CC)c2cc(NC(=O)CSc3ccc([N+](=O)[O-])cn3)ccc21	2%	5%[46.1 µM]	-24%	/	-15%	-6%	-11%	/
CC(C)c1ccc(CCNC(=O)c2ccc([N+](=O)[O-])cc2)cc1	3%	?	?	-3.7%	-19%	5%	16%	-2%
Cc1cccc(/C=N/Nc2cc(N3CCOCC3)nc(N3CCOCC3)n2)c1	12%	1.4µM*	?	-13%	0%	-55%	-7%	?
O=C(Cn1nc(C(=O)O)c2ccccc2c1=O)NCC1CCCO1 (stereo not given)	5%	2%	0%	4.0%	7%	-1%	11%	-8%
CC(=O)c1ccc(OCCCCOc2ccc(C(C)=O)cc2)cc1	12%	/	/	/	5%	1%	-8%	/
Cc1ccc(OCC(=O)N/N=C\c2ccc(C)o2)c([N+](=O)[O-])c1	/	?	-14%[46.1 µM]	/	6%	-2%	-4%	/
COc1ccc(CN2C(=O)CS(=O)CC2=O)cc1OC	20%	28%	5%	6.3%	0%	-3%	18%	0%
COc1ccc(C2=NS(=O)(=O)N(C)C(C(=O)NC(C)c3ccccc3)=C2)cc1 (stereo not given)	4%	?	?	-3.0%	-24%&-3%	-1%	-5%	-28%
Clc1ccc(/C=N/c2c(-c3ccco3)nc3ccccn23)cc1	16%	3%	-11%	?	/	13%	5%	?
CCNC(=S)NNC(=O)c1csc2ccccc12	7%	5%	7%	2.6%	36%[activator]	6%	-12%	-1%
CCC(C)NC(=O)c1sc2nc(C)c(C(=O)Nc3ccc(C)cc3C)c(-c3ccccc3Cl)c2c1N (stereo not given)	/	?	6%[46.1 µM]	-7.9%	-10%	/	/	-2%
CNC(=S)N(Cc1cccs1)Cc1cc2cc(OC)c(OC)cc2[nH]c1=O	14%	?	-23%	-7.0%	0%	1%	2%	?
COc1ccc(NS(=O)(=O)c2ccc(C)c(C(=O)OC(C)C(=O)N3CCOCC3)c2)cc1 (stereo not given)	/	?	-9%	/	8%	-4%	-3%	/
CN(C1CCS(=O)(=O)C1)S(=O)(=O)c1cccs1 (stereo not given)	/	11%[46.1 µM]	-16%	/	-5%	-4%	-11%	/
CN(CC(=O)Nc1ccc(F)cc1)C(=O)c1cc(-c2cccs2)nn1-c1ccccc1	/	-25%	0%	/	-15%	-2%	-8%	/
Cc1c(C(=O)O)nnn1-c1nonc1N	/	-29%[46.1 µM]	15%	/	-8%	1%	5%	/
COc1nn(C(C)C(=O)N2N=C(C(F)F)CC2(O)C(F)F)cc1[N+](=O)[O-] (stereo not given)	0%	19%	-9%	-0.3%	-10%	14%	-5%	-3%
Cn1c2ccccc2c2cnn(CC(=O)Nc3ccc(Cl)cc3)c(=O)c21	2%	/	/	/	-18%	2%	17%	/
NS(=O)(=O)c1ccc(CCNC(=O)COC(=O)CN2C(=O)C3CCCCC3C2=O)cc1 (stereo not given)	7%	0%[46.1 µM]	-6%	/	-4%	2%	-6%	/
CCCCOC(=O)Nc1nnc(CCOCC)s1	-19%	?	15%	2.9%	6%	-1%	0%	11%
CCOc1ccc(CCNC(=O)c2cn(C)c3ccc(S(=O)(=O)N4CCCCC4)cc3c2=O)cc1OCC	/	-60%[46.1 µM]	6%[46.1 µM]	-3.2%	3%	/	/	?
COc1ccc(-c2noc(CNC(=O)CCN3C(=O)[C@H]4CC=CC[C@H]4C3=O)n2)cc1	-7%	/	/	/	-21%	17%	5%	/
O=C(c1cccnc1)N1CCN(Cc2cccc(Br)c2)CC1	-6%	2%	0%	-2.7%	/	5%	7%	-4%
CCCCCCCCCc1nc2sc3c(c2c(=O)n1NC(=O)c1ccccc1[N+](=O)[O-])CC(C)(C)OC3	-11%	18%	?	-8.0%	?	-11%	-2%	-20%
Cc1ccccc1C(=O)N/N=C/c1ccsc1C	2%	18%	?	-7.8%	27%	-17%	-2%	-18%
COCCNc1nc2ccccc2n2cnnc12	2%	/	/	/	-11%	0%	1%	/
O=[N+]([O-])c1cccc(-c2ccc(SCc3cccnc3)nn2)c1	/	12%	5%	/	22%	-10%	-24%	/
COc1ccc(-n2nc3c(c2NC(=O)c2c(-c4ccccc4Cl)noc2C)CS(=O)(=O)C3)cc1	-43%	-15%	-23%	3.2%	-14%	5%	-10%	1%
Cc1c(C=O)c2ccccn2c1C(=O)c1ccccc1Cl	1%	-23%	-5%	/	-24%	1%	1%	/
O=C(C/C=N\OCc1ccc([N+](=O)[O-])cc1)Nc1ccc(Cl)cc1	/	-30%[46.1 µM]	-11%	/	-1%	-10%	-6%	/
CC1=C(C(N)=O)C(c2cccs2)NC(=O)N1 (stereo not given)	-2%	/	/	/	-5%	0%	-2%	/
O=C(CSc1ncc(CO)n1Cc1ccc(Cl)cc1)NCc1ccc(F)cc1	/	/	-3%[46.1 µM]	-1.4%	6%	/	/	6%
Cc1nc(-c2ccc(-c3ccon3)s2)no1	-7%	10%	10%	/	39%[activator]	-2%	-13%	/
C=CCOC(=O)C1=C(C)NC(SCC(N)=O)=C(C#N)C1c1ccc(C)cc1 (stereo not given)	1%	/	/	/	3%	1%	6%	/
CCSc1nc(C)c(C(C)=O)cc1C#N	-6%	-14%	9%	2.1%	-3%	0%	-19%	-4%
CC(=O)N1CCN(C(=O)c2cc(S(=O)(=O)Nc3ccc(S(C)(=O)=O)cc3)ccc2Cl)CC1	/	22%[46.1 µM]	2%	/	-13%	1%	1%	/
COc1ccc(/C(N)=N/OC(=O)c2ccc(C)c([N+](=O)[O-])c2)cc1OC	-7%	14%	5%	2.4%	15%	-2%	-1%	?
Cc1onc(-c2ccccc2Cl)c1C(=O)N1CCN(c2ncccn2)CC1	0%	/	/	/	-8%	0%	12%	/
O=C(Oc1cccc(NC(=O)c2ccco2)c1)c1ccc(Br)c(S(=O)(=O)N2CCCCC2)c1	24%	27%	13%	-0.4%	-23%	2%	14%	?
COC(=O)c1ccc(NCc2c(O)ccc(O)c2Br)cc1Cl	/	?	-17%	/	?	/	-8%	/
Cc1ccc(-c2csc(C3C(N)=NC(S)=C(C#N)C34CCCCC4)n2)cc1 (stereo not given)	?	-23%	-21%	-9.3%	-13%	4%	24%	16µM*
Cc1ccc(-c2cc(C(F)(F)F)n3nc(-c4cccc(Br)c4)cc3n2)cc1	/	-4%[46.1 µM]	17%[46.1 µM]	-2.7%	-11%	/	/	-8%
Cc1ccc(Cl)cc1NC(=O)Cn1c(=O)n(C(C)C)c(=O)c2oc3ccccc3c21	/	/	-21%[46.1 µM]	-0.9%	-15%	/	/	7%
COc1cccc(NC(=S)N2CCc3cc(OC)c(OC)cc3C2COc2ccc3c(C)cc(=O)oc3c2)c1 (stereo not given)	8.9µM*	?	6%	-0.6%	-23%	19%	-9%	7%
CCOC(=O)c1ccc(NC(=O)Nc2ccc(S(N)(=O)=O)cc2)cc1	6%	5%	-29%[14.3 µM]	0.4%	-3%	2%	4%	1%

Later entries
SMILES	NS1 function inh	MARV entry inh	LASV entry inh	Cruzain Triton	StopGo reporter	SARS PLpro yeast	RE007 growth inh	Cruzain noTriton
Cc1cc([N+](=O)[O-])c2ccccc2[n+]1[O-]	-93%	/	/	/	?	-22%	14µM*	/
O=S(=O)(Cc1cccc(F)c1)c1c[nH]c2ccccc12	5%	/	/	1.6%	30%	-1%	27%	-6%
CCOc1ccc(C2CC(=O)NC(SC)=C2C#N)cc1 (stereo not given)	2%	/	/	0.1%	0%	-1%	-2%	0%
CC(CC(=O)c1ccc(F)cc1)N1CCN(c2ccccc2)CC1 (stereo not given)	/	-1%	-1%[46.1 µM]	/	?	/	-2%	/
O=S(=O)(c1ccc(-c2csc(-c3cccnc3)n2)cc1)N1CCCCC1	-64%	?	-3%	-11%	?	4%	20%	11%
CCOC(=O)c1c(C)c(C(=O)NC(C)COC)c(C)n1C (stereo not given)	1%	17%	5%	3.6%	0%	1%	8%	2%
COc1ccc(-c2c(=O)n(OCc3ccccn3)c3ccccc3[n+]2[O-])cc1OC	1%	-1%	-9%	-6.2%	-21%	-7%	-12%	1%
CN(C)c1cc(-c2ccc(Cl)cc2Cl)oc(=O)c1Cl	2%	/	/	/	-4%	-2%	-16%	/
CN1c2ccccc2C2(C)CCCC3=Cc4cc([N+](=O)[O-])cc([N+](=O)[O-])c4OC312 (stereo not given)	3%	?	-6%	-6.5%	?	17%	1%	?
Cc1nc2ncnn2c(C)c1CCC(=O)Nc1csc(N)n1	?	3%	9%	-0.6%	-4%	13%	5%	2%
CC(=O)Nc1cc2c(ccc3ccccc32)oc1=O	/	8%[46.1 µM]	?	/	-3%	-3%	-9%	/
CC(C)(C)NC(=O)Cn1c(Cl)nc2ccccc21	-2%	/	/	/	-21%	-1%	6%	/
COc1ccc(S(=O)(=O)N2CCCC2CNC(=O)C(=O)NC2CC2)cc1 (stereo not given)	/	10%	-1%	/	-2%	-4%	25%	/
Cc1ccc2oc(=O)c3cnn(CC(=O)NCCN4CCOCC4)c3c2c1	-10%	/	/	0.0%	-23%	9%	5%	-1%

Compound activity (PubChem BioAssay)
